YopH PTP inh = inhibitors of Yersinia enterocolitica YopH tyrosine phosphatase. fluorescence Ex485/Em525. 0.16% of 140,000 active. inhibition, %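 (about 10 µM by stock and volumes)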;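 active = inhibition of 50% or more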;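 note: controls were vehicle for no effect and minimum signal wells for full effect; inactives centre near -20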
Arbovirus inh = antivirals against arbovirus infection. arbovirus infection cell-based antiviral screen. inhibition, % at 10 µM. 0.37% of 200,000 active. AID 1251;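 active = inhibition from about 30%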;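 note: bluetongue infection of BSR cells; cell survival read as ATP light after 72 h; 0% = infected wells without compound and 100% = uninfected wells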
RecA intein inh = inhibitors of M. tuberculosis RecA intein splicing; P9WHJ3; cell-free RecA intein splicing, fluorescence; inhibition, %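 (about 9 µM by stock and volumes)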; 0.75% of 290,000 active; in the data active = inhibition above about 30%; inconclusive = no clear call, values can overlap the other calls;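 note: 0% = vehicle wells and 100% = reference inhibitor control wells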
Target sequence (P9WHJ3 whole entry, looked up): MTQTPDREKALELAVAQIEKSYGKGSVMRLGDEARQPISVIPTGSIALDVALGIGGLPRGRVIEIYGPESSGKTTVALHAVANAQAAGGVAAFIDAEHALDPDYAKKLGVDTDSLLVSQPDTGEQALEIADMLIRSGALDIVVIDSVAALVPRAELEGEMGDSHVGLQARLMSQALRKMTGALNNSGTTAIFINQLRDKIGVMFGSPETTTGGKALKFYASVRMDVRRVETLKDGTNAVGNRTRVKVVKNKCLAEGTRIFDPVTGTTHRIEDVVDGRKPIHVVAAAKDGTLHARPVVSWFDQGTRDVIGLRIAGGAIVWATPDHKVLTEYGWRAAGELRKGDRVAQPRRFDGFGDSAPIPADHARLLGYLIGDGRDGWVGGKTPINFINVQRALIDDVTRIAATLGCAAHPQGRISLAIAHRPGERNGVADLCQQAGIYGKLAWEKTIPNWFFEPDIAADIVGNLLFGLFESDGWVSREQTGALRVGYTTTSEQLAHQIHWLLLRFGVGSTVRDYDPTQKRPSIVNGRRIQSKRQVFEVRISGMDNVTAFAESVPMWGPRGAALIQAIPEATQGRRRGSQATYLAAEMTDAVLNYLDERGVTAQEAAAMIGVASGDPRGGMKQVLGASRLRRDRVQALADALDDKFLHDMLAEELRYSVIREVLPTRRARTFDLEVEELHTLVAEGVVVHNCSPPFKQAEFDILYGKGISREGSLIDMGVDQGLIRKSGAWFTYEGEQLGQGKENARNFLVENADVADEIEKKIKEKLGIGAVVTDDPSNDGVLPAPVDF
Mtb betalactam = beta-lactam sensitization of Mtb H37Rv | M. tuberculosis H37Rv growth with meropenem, percent inhibition; hits of this screen are not shown here | inhibition, % at 25 µM | 0.27% of 330,000 active | AID 434955;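 active = about 74% or more and at least 40 points above the plate without the antibiotic, then above 30% in a dose series; inconclusive = first-round hits that could not be retested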;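 note: growth measured after seven days incubation then overnight dye step; 0% = bacteria only wells and 100% = bacteria with antibiotic; twin plates without the antibiotic show which effects depend on it; some results filed as inactive read as strong as hits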
Mtb H37Rv = M. tuberculosis H37Rv growth inhibitors, H37Rv strain (AID 1626). M. tuberculosis H37Rv growth inhibition; higher % means a stronger effect. inhibition, % at 10 µM, or IC50 in µM where a hit was titrated. 0.95% of 220,000 active;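 active = confirmed in a dose series; inconclusive = inhibition above 80% but not taken into the dose series; inactive = below 80% or under 30% at every dose of the series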;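 note: bacteria incubated seven days before Alamar blue readout; 0% = bacteria only wells and 100% = bacteria with antibiotic wells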
Arbovirus inh repeat = also measured in Arbovirus inh; calls as there; inhibition, %; measured here: 10K subset replicate screen; many hits read low in the repeat;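 first of two repeat runs on a subset; 0% = infected and 100% = uninfected wells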
An asterisk follows results filed as active; ? = inconclusive; · = no result given.

SMILES	YopH PTP inh	Arbovirus inh	RecA intein inh	Mtb betalactam	Mtb H37Rv	others
CC(C)CNC(=O)c1nc(-c2ccccc2)n(-c2ccccc2)n1	10	2	1.1	7	4%
CCc1c(C)sc(NC(=O)c2cnn3cccnc23)c1C#N	11	-5	0.4	15	-3%
COc1cccc(CN2CCC(C(=O)N3CCN(c4ccccc4F)CC3)CC2)c1	-23	3	0.1	-1	-9%
COc1ccccc1OC1OC2COC(c3ccco3)OC2C(O)C1NC(C)=O (stereo not drawn)	-14	4	-2.8	-1	-4%
Cc1ccc(S(=O)(=O)N2CCCC(C(=O)NCCCN3CCCCC3C)C2)cc1 (stereo not drawn)	-28	5	-1.2	-9	-7%
O=C(CCc1nnc(CCCc2ccccc2)o1)NC(C1CC1)C1CC1	·	-6	0.5	-1	-3%
O=C(CCl)Nc1c2c(nn1-c1ccccc1)CSC2	·	·	35*	99	·
Cc1ccc(S(=O)(=O)c2nc(S(C)(=O)=O)sc2N2CCN(C)CC2)cc1	·	·	0.2	-5	·
O=C(c1ccc(F)cc1)N1CCC(C(=O)N2CCN(S(=O)(=O)c3cccc(Cl)c3)CC2)CC1	·	·	4.4	0	·
CC(=O)Nc1ccc(S(=O)(=O)N2CCN(Cc3cccs3)CC2)cc1	·	5	-2.2	2	6%
Cn1ccnc1C(=O)c1cccc([N+](=O)[O-])c1	-41	5	1.9	-4	-3%
O=C(COC(=O)/C=C/c1ccc(F)cc1)NCc1ccco1	·	-4	-1.8	-1	-4%
COCC(=O)N1CCC(Oc2ccc(C(=O)NCc3cc(C)n(C)n3)cc2)CC1	·	·	0.8	-1	·
COc1ccc2c(C(=O)CN3CC(C)OC(C)C3)c[nH]c2c1 (stereo not drawn)	-55	5	0.4	-10	-9%
O=C(Cn1nc(-c2ccc(Cl)cc2)c2ccccc2c1=O)NCC1CCCO1 (stereo not drawn)	1	-5	0.3	18	4%
CC(C)CCOc1ccccc1C(N)=O	·	26	·	2	0%
CN(C)c1ccc(/C=C2/C(=O)N(c3ccc([N+](=O)[O-])cc3)N=C2N2CCOCC2)cc1	-38	15	·	·	?
COc1ccc(C2c3ccc4ccccc4c3Oc3ncn4nc(Cc5ccccc5)nc4c32)cc1OC (stereo not drawn)	-9	-7	-1.7	-3	-2%
CCC1(C)COC2(OC1)C(=O)Nc1ccccc12 (stereo not drawn)	-15	-2	9.2	-18	0%
O=C(NCC1CCN(Cc2ccc(F)cc2)CC1)C1CCCN(c2ncnc3c2nc2n3CCCCC2)C1 (stereo not drawn)	·	·	-8.2	2	·
O=C(CCCNC(=O)/C(=C\c1ccccc1F)NC(=O)c1ccccc1)OCc1ccccc1	-56	-1	0.1	0	-2%
CCN(CC)S(=O)(=O)c1ccc2c(c1)NC(=O)C1CCCN21 (stereo not drawn)	·	·	-117	76	·
Cc1cc(C)c(NC(=O)Nc2ccccc2C)c(Cl)c1	·	5	-5.2	2	-3%
C=CCNC(=S)Nc1sc2c(c1C(=O)OCC)CC(C)(CC)OC2 (stereo not drawn)	-26	-6	-2.0	-3	1%
COc1cccc(N2CCN(C(=O)c3ccc4nc(N5CCC(C)CC5)sc4c3)CC2)c1	·	·	4.5	74	8%

For convenience, part of the list above:
SMILES	YopH PTP inh	Arbovirus inh	RecA intein inh	Mtb betalactam	Mtb H37Rv	others
COc1ccc2c(C(=O)CN3CC(C)OC(C)C3)c[nH]c2c1 (stereo not drawn)	-55	5	0.4	-10	-9%
O=C(Cn1nc(-c2ccc(Cl)cc2)c2ccccc2c1=O)NCC1CCCO1 (stereo not drawn)	1	-5	0.3	18	4%
CC(C)CCOc1ccccc1C(N)=O	·	26	·	2	0%
CN(C)c1ccc(/C=C2/C(=O)N(c3ccc([N+](=O)[O-])cc3)N=C2N2CCOCC2)cc1	-38	15	·	·	?

Following part:
SMILES	YopH PTP inh	Arbovirus inh	RecA intein inh	Mtb betalactam	Mtb H37Rv	others
O=C1C2CCCN2C(c2cccnc2)N1c1ccc(Cl)c(Cl)c1 (stereo not drawn)	-12	2	0.3	-11	-2%
NC(=O)CC(NC(=O)c1cccc(Br)c1)c1ccc(N2CCC(N3CCCCC3)CC2)c([N+](=O)[O-])c1 (stereo not drawn)	·	·	-0.8	-9	·
CCOc1ccccc1NC(=O)COC(=O)CSc1ccc(Cl)cc1	7	4	0.4	-12	11%
COc1cccc(NC2=C(Cl)C(=O)OC2OC(=O)c2ccco2)c1 (stereo not drawn)	·	-9	35*	74	-9%
COc1ccccc1NC(=O)CSc1ccc2nnc(-c3ccc(C)cc3)n2n1	·	5	-3.1	-8	·
O=C(O)C1Nc2ccc(OC(F)(F)F)cc2C2C=CCC12 (stereo not drawn)	·	·	21	21	-9%
C/C(N)=C(/C#N)C(=O)COC(=O)C1CSC2(c3ccc(F)cc3)CCC(=O)N12 (stereo not drawn)	·	·	1.1	7	·
CC1(C)CC(NC(=O)Cc2ccccc2[N+](=O)[O-])CC(C)(C)N1	0	3	-0.1	-6	7%
Cc1ccccc1NC(=O)C1CCCN1S(=O)(=O)c1ccc2c(c1)n(C)c(=O)c(=O)n2C (stereo not drawn)	-34	0	-0.2	2	·
CN(C)CCCn1c(SCC(=O)Nc2nccs2)nnc1-c1ccncc1	·	·	-0.7	6	·
COc1ccc(-c2[nH]ncc2-c2cnc(C)s2)c(O)c1	-37	10	0.2	8	-7%	Arbovirus inh repeat=0
CCN(CC)C(=O)c1ccccc1NC(=O)c1ccccc1	·	-2	1.0	0	3%
O=C(CSc1nnnn1C1CCCCC1)N1CCCC1	-52	5	0.3	7	13%
CCOCC(=O)Nc1cc(C(=O)NCCC(C)C)ccc1Cl	·	-3	1.1	3	1%
Cc1nn(C)c(C)c1NC(=O)CSc1nc(Cc2ccccc2)nc2c1cnn2-c1ccccc1	-24	·	·	3	7%
CCC(C)NC(=O)N[C@@H](Cc1ccccc1)C(=O)O (stereo partly drawn)	-27	2	-0.8	-4	-7%
CC(C)c1ccc(C2c3[nH]c4ccccc4c3C[C@H]3C(=O)N(c4ccccc4C(=O)N4CCC(C(=O)O)CC4)C(=O)N23)cc1 (stereo partly drawn)	·	·	-1.3	-1	·
CN(N)c1nc(N2CCCC2)nc(N2CCCC2)n1	·	·	-3.5	49	·
O=C(CN1C(=O)CSCC1=O)Nc1ccc2c(c1)OCO2	9	-9	1.9	-10	-4%
O=c1cc(/C=C/c2ccccc2)oc2ccccc12	-35	6	·	93	21%
N#Cc1ccccc1NC(=O)COC(=O)CCc1ccccc1	·	·	0.1	8	·
COc1ccccc1N1CCN(C2CCCN(Cc3ccc(Cl)cc3)C2)CC1 (stereo not drawn)	·	·	0.6	-3	·
O=S(=O)(NC1=NCCC1)c1ccc(F)cc1F	·	5	-0.8	-8	-2%
COc1ccc(CC(=O)NNC(=O)c2cnccn2)cc1	-11	-24	-2.8	-8	66%
CCO[C@H]1OC(C(=O)O)=C[C@@H](C)[C@@H]1CCCO	·	3	-1.3	-19	-8%

Reprinted from the part before: 3 entries, then new ones.
SMILES	YopH PTP inh	Arbovirus inh	RecA intein inh	Mtb betalactam	Mtb H37Rv	others
O=S(=O)(NC1=NCCC1)c1ccc(F)cc1F	·	5	-0.8	-8	-2%
COc1ccc(CC(=O)NNC(=O)c2cnccn2)cc1	-11	-24	-2.8	-8	66%
CCO[C@H]1OC(C(=O)O)=C[C@@H](C)[C@@H]1CCCO	·	3	-1.3	-19	-8%
Cc1c([N+](=O)[O-])c([N+](=O)[O-])nn1CC(=O)NCCc1ccccc1	-17	-3	-1.3	2	0%
Cc1ccc(NC(=O)N2CCCC2C(=O)Nc2c(C)cc(C)cc2C)cc1 (stereo not drawn)	·	·	1.4	-5	·
CCOC(=O)c1ccc2c(c1)nc(SCC(=O)NC(C)C)n2CC	-10	-10	-0.2	-3	-1%
CC(C)CN(CC(C)C)c1nnc(N)s1	-27	-9	2.9	6	·	Arbovirus inh repeat=0
Cc1cc(SC(C)C(=O)Nc2ncc(Cl)cc2Cl)nc2ccccc12 (stereo not drawn)	-18	6	-1.6	-2	2%
C[C@H](NC(=O)[C@H]1N2C(=O)c3ccccc3C2SC1(C)C)C(=O)N1CCC[C@H]1CO (stereo partly drawn)	·	·	-0.8	-7	·
O=C(CSc1ncn[nH]1)Nc1ccccc1C(=O)O	-30	5	0.9	-10	-2%
CCOC(=O)C(NC(C)=O)(Nc1ccc(S(=O)(=O)Nc2cc(C)on2)cc1)C(F)(F)F (stereo not drawn)	-45	7	7.0	76	5%
Cc1ccc(-c2nc(NC(=O)CSc3cc(C)c4ccccc4n3)ns2)cc1	-25	-17	1.3	3	-7%
CSc1cc(C)c(OCC(=O)Nc2ccc(NC(C)=O)cc2)c(C)c1	·	-16	-0.9	23	-3%
CC(=O)Nc1ccc(N/C=C/C(=O)c2ccc(C)o2)cc1	-12	2	-1.3	1	7%
COc1ccc(/C=C(\NC(=O)c2ccccc2)C(=O)N/N=C/c2ccncc2)cc1	-31	11	4.9	-1	-7%
COC(=O)Cc1ccc2sc(-c3ccccc3)nc2c1	-11	-5	1.9	-8	4%
CCCn1c(-c2ccc(F)cc2)cnc1SCC(=O)O	-55	7	-1.6	13	1%
O=C(NCCC1CCCCN1S(=O)(=O)c1ccc(F)cc1)C(=O)NCc1cccnc1 (stereo not drawn)	·	·	-2.0	-3	·
NC(=O)C1CC(=O)N(c2ccc(OCC(=O)Nc3ccc(Cl)cc3)cc2)C1 (stereo not drawn)	·	·	3.7	6	·
CC(=O)Nc1c(O)nc(SCC(=O)Nc2nnc(SCc3ccccc3)s2)[nH]c1=O	·	2	10	0	-2%
Cc1ccc(N/C=C2\C(=O)N(c3ccc(F)cc3F)C(c3cccnc3)S2(=O)=O)cc1 (stereo not drawn)	·	·	-0.9	-6	0%
CCN(CC)CCn1c(NS(=O)(=O)c2ccc(Cl)cc2)nc2ccccc21	·	·	0.6	-5	·
Cc1csc(-c2cccnc2)n1	-13	14	0.5	14	-1%
COc1ccc(C(C)=O)cc1COc1ccc(F)cc1	·	-6	3.9	3	9%
CCOc1ccccc1CNC(=O)CN1C(=O)CSc2ccc(S(=O)(=O)N3CCOCC3)cc21	·	·	-3.9	-5	·
O=C(CN1C(=O)NC2(CCc3ccccc3C2)C1=O)Nc1ccc(Cl)cc1F (stereo not drawn)	-20	-3	4.0	-8	-4%
CCOC(=O)Nc1sc(C(=O)N(C)C)c(C)c1C(=O)OCC	2	7	1.5	-6	-3%
CNC(=O)Nc1ccc(Cn2cc(C(F)(F)F)ccc2=O)cc1	·	-20	3.6	2	4%

Remaining list, next part:
SMILES	YopH PTP inh	Arbovirus inh	RecA intein inh	Mtb betalactam	Mtb H37Rv	others
CC(OC(=O)c1cc(S(=O)(=O)N(C)C)ccc1N1CCCC1)C(=O)NCc1ccccc1 (stereo not drawn)	·	·	3.3	5	·
CC1CCCN(C(=S)SCC(=O)O)C1 (stereo not drawn)	-34	4	1.9	-4	-11%
CNC(=O)COc1ccc(Nc2nnc(C)c3ccccc23)cc1	·	·	·	-9	-12%
CC(C)CCNC(=O)c1csc2c1CCCCC2	·	1	7.6	6	8%
CC(=O)N1CCN(CCN2C(C)=CC(=C(C#N)C#N)C=C2C)CC1	·	-2	-4.5	-1	-6%
O=C(CSc1nc2ccccc2o1)c1ccc2c(c1)OCCO2	-17	4	·	0	-6%
CC(C)NS(=O)(=O)c1ccc(OCC(=O)NCc2cccnc2)cc1	-16	4	-1.6	11	-9%
CN(C(=O)CN1CCN(c2ccccc2F)CC1)C1CCCc2ccccc21 (stereo not drawn)	·	·	-1.1	5	·
CCOc1ccccc1NS(=O)(=O)c1c(C)[nH]c(C)c1C(=O)N1CCCCC1	·	·	-1.1	-2	·
CCOC(=O)c1cc(-c2ccccc2)sc1NC(=S)Nc1cc(C)ccn1	-39	-4	-5.2	-10	·
CCCCCC(=O)NNC(=S)NC(C)=O	·	-7	0.3	3	-17%
Cc1cccc(NC(=O)CN(C)S(=O)(=O)c2cccc3nsnc23)c1C	-43	14	0.8	-7	-5%
CC(=O)c1ccc(OCc2cc(C(=O)NC(C)Cc3ccccn3)no2)cc1 (stereo not drawn)	·	·	-0.6	-5	·
CCOc1ccc(Oc2ccc(S(=O)(=O)N3CCOCC3)cc2NC(=O)C2=COCCO2)cc1	·	·	0.6	-1	·
CC(=O)Nc1ccc(S(=O)(=O)Nc2cccc(NC(=O)c3ccco3)c2)cc1	·	-6	-2.7	6	2%
CCOc1c(C)cc(S(=O)(=O)NCc2ccccn2)c(C)c1C	·	·	3.1	-1	·
O=C(O)CC(Cc1ccc(Br)cc1)C(=O)O (stereo not drawn)	-46	16	1.9	-9	·
O=C(COC(=O)c1ccc(S(=O)(=O)N2CCCC2)cc1)NCc1cccs1	·	-1	0.7	-3	-9%

Bioassay records (PubChem BioAssay)

These rows are one share of the data; rates above refer to the full screens.
